LT uptake inh – anthrax lethal toxin internalization inhibition. Cells, anthrax lethal toxin internalization, FRET ratio (460/530). Potency, µM (series often up to 40 µM), without a hit: top-dose activity change, negative = inhibition, usual class: inhibitors. 70,000 compounds, 0.67% hits. AID 912; active = well fitted falling ratio curve with the 530 nm signal flat; inconclusive = other ratio curves, or a change in one channel alone; inactive = flat curves in the ratio and both channels; the % refers to the ratio; also: % is scaled to controls: 0 for no effect and ±100 for the full control effect; nearly all actives have a fitted effect of over 50% in size; tested in ME-180 cells; beta-lactamase reporter
SmPrx2 inh – blocks S. mansoni peroxiredoxin 2 enzymatic activity; Potency, µM; AID 448; 65,000 compounds, 0.07% hits; S. mansoni Prx2 activity coupled to TGR/GSH (TGR is thioredoxin glutathione reductase), NADPH fluorescence loss, qHTS; some inactives read as strong as hits; active means full or partial inhibition curve with a strong effect at the top dose; inconclusive means weaker partial or single-point curve; inactive means no accepted curve; also: series up to 57 µM; many of its hits are not listed in these tables
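Enzyme mix: 100 uM NADPH, 25 nM TGR, 700 uM GSH, 50 nM Prx2 in 100 mM phosphate pH 7.4, 10 mM EDTA, 0.01% Tween-20. 15 min RT with compound; NADPH/GSH added, H2O2 starts reaction; NADPH fluorescence read 8 min.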
Starred values were filed as active, the others as inactive; ? = inconclusive; / = not tested or not shown; & = joins results of further samples; [ ] = another dose, or the depositor's remark. Potency is read from the fitted curve at half-maximal effect. Some of the compounds tested. The share of hits here may be higher or lower than overall.

Values run as follows: LT uptake inh | SmPrx2 inh
> Cn1nnc(NC(=O)COc2ccc(C3CCCCC3)cc2)n1
 : -14% | >57
> COc1c(C)cccc1C(=O)Nc1cc(Cl)ccc1N1CCOCC1
 : -4% | >57
> COc1ccc(Oc2coc3c(CN(C)C)c(O)ccc3c2=O)cc1
 : 3% | >57
> COC(=O)C(C(=O)OC)N1C(=O)CCC1=O
 : 0% | >57
> COc1cccc(N2CCN(c3c4c(nc5ncnn35)CCC4)CC2)c1
 : -16% | >57
> c1csc(CNc2ccnc(-c3ccc4c(c3)OCO4)n2)c1
 : -9% | >57
> COc1cc(C(=O)N2CCN(C(=O)Cc3ccccc3)CC2)cc(OC)c1OC
 : 4% | /
> NS(=O)(=O)c1ccc(CCNC2CC(=O)N(CCc3ccccc3)C2=O)cc1 (centres undefined)
 : -12% | /
> CCC1CCCCN1CCNS(=O)(=O)c1ccc2c(c1)oc(=O)n2C (centres undefined)
 : 8% | >57
> CCOC(=O)C(C)Sc1ccc2nnc(-c3ccc(F)cc3)n2n1 (centres undefined)
 : 6% | >57
> CCc1nnc(NC(=O)c2ccc(NS(=O)(=O)c3ccccc3)cc2)s1
 : ? | >57
> O=C(Nc1c(C(=O)Nc2cccc(F)c2)oc2ccccc12)c1ccc2c(c1)OCO2
 : -9% | >57
> CC1(C)OC(=O)C(=CNCC(O)c2ccccc2)C(=O)O1 (centres undefined)
 : 7% | >57
> CCCCS(=O)(=O)NC1=NCN(CC)CN1
 : 2% | >57
> O=S1(=O)CCN2C(=N1)Sc1c2ccc2c1CCCC2
 : -1% | >57
> CCCCC(CC)CNC(=O)c1[nH]c(C)c(C(C)=O)c1C (centres undefined)
 : -9% | >57
> CSc1nc2ccc(S(=O)(=O)Nc3c(C)n(C)n(-c4ccccc4)c3=O)cc2s1
 : -32% | >57
> Cc1cc(C)n2c(SCCC(C)C)nnc2n1
 : -5% | >57
> CCn1cc(C(=O)NCC2COc3ccccc3O2)c2cc(OC)c(OC)cc2c1=O (centres undefined)
 : 5% | >57
> O=c1cnc2cnc(Oc3cccc(Cl)c3)nc2n1C[C@H]1CCCO1
 : -4% | >57
> CCOC(=O)CNC(=O)CSc1nc2sc(C)c(C)c2c(=O)n1C
 : -8% | >57
> Cc1oc(C(C)(C)C)cc1C(=O)Nc1ccc2c(c1)OCCO2
 : ? | >57
> COc1cccc(CN(CC(=O)NCC2CCCO2)C(=O)CCC(=O)Nc2cc(C)on2)c1 (centres undefined)
 : 3% | >57
> O=C1Nc2ccccc2C2(CCN(CCc3ccc(C(F)(F)F)cc3)CC2)O1
 : 10µM* | /
> CCOc1ccc(C(=O)CSc2nnc(N)s2)cc1
 : -3% | >57
> COc1ccc(Cc2nnc(SCc3c(C)noc3C)n2C2CCCCC2)cc1OC
 : -6% | >57
> Cc1ccc(S(=O)(=O)C2(C(=O)O)CCCC2)cc1C
 : 5% | >57
> COc1cc2ccccc2cc1-c1nnc(COc2ccccc2)o1
 : -5% | /
> COc1ccccc1Nc1nc(N)nc(CSc2nnc(C)s2)n1
 : 2% | >57
> CCOC(=O)c1ccc(-c2c(C(=O)OCC)oc3cc(O)c(CC)cc3c2=O)o1
 : ? | >57

Random excerpt: 4 records from the list.
Values run as follows: LT uptake inh | SmPrx2 inh
> O=c1cnc2cnc(Oc3cccc(Cl)c3)nc2n1C[C@H]1CCCO1
 : -4% | >57
> CCn1cc(C(=O)NCC2COc3ccccc3O2)c2cc(OC)c(OC)cc2c1=O (centres undefined)
 : 5% | >57
> CCOC(=O)CNC(=O)CSc1nc2sc(C)c(C)c2c(=O)n1C
 : -8% | >57
> CCOc1ccc(C(=O)CSc2nnc(N)s2)cc1
 : -3% | >57

Going on with the list:
Values run as follows: LT uptake inh | SmPrx2 inh
> Cc1cccc(C(=O)Nc2cc(=O)n(C)c(=O)n2C)c1
 : 9% | >57
> O=C(CCNS(=O)(=O)c1cccc2nsnc12)NC1CCN(Cc2ccccc2)CC1
 : -12% | >57
> O=C(NC1CCCCCC1)c1cc(S(=O)(=O)N2CCC3(CC2)OCCO3)ccc1F
 : -1% | >57
> COc1ccc(CNc2ccnc(-c3ccccc3C(F)(F)F)n2)c(OC)c1
 : -17% | >57
> COc1ccc(C(C)=O)cc1COC(=O)c1ccc(S(=O)(=O)N2CCOCC2)cc1
 : 10% | >57
> CCn1nnc(-c2ccccc2NC(=O)C(F)(F)F)n1
 : -10% | >57
> Clc1ccccc1-c1nc(N2CCNCC2)c2ccccc2n1
 : 7% | >57
> COc1ccc(CCN(C)C(=O)N2CCOCC2)cc1OC
 : -7% | >57
> CCCc1cc(C(=O)Nc2ccc(C)cc2)no1
 : ? | >57
> O=C(Nc1ccc(OC(=O)c2cccnc2)cc1)c1cccnc1
 : 18% | >57
> CCOC(=O)N1CCC(NC(=O)CSCc2nc(-c3cccc(OC)c3)oc2C)CC1
 : 10% | >57
> N[C@H](Cc1o[nH]c(=O)c1Cl)C(=O)O
 : 1% | >57
> COc1ccc2[nH]cc(CCNc3ncncc3-c3cccc(C#N)c3)c2c1
 : -4% | >57
> CCOCCCNC(=O)C1CCN(C(=O)Nc2ccc(Cl)cc2)CC1
 : 16% | >57
> O=C(NCCN1CCc2ccccc2C1)C1CCN(S(=O)(=O)N2CCCCC2)CC1
 : / | >57
> O=C(CCc1nc(-c2ccccc2)no1)NCc1ccco1
 : ? | >57
> CCOC(=O)C1CCN(C(=O)Cc2c(C(=O)O)[nH]c3ccccc23)CC1
 : -7% | >57
> COc1ccc(F)cc1CN1CCN(c2cc(C)nc3c4c(C)cc(C)nc4nn23)CC1
 : 4% | >57
> Cc1cc(C)c2c(CN3CCN(C)CC3)cc(=O)oc2c1
 : ? | >57
> O=c1cc(-c2ccccc2)nc2n1Cc1ccccc1-2
 : ? | >57
> Cc1ccc(C(=O)CSc2ccccn2)cc1
 : 5% | >57
> Cc1nnc(SCCCn2c(N3CCN(c4ccccc4)CC3)nc3c2c(=O)[nH]c(=O)n3C)s1
 : -14% | >57
> Nc1c(-c2ccc(Cl)cc2)nnn1-c1ccccc1
 : -3% | >57
> COc1cc(OC)cc(-c2cc3nc(C)c(CCC(=O)NC(C)CCc4ccco4)c(C)n3n2)c1 (centres undefined)
 : 8% | >57
> Cc1ccc2[nH]c(=O)c(CN(Cc3cccs3)Cc3nnnn3Cc3ccccc3)cc2c1
 : ? | >57
> Cn1c(=O)[nH]c(=O)c2c1nc(N1CCCCCC1)n2CCSc1nc2ccccc2[nH]1
 : 12% | >57
> CCCCC(=O)N(c1ccc(C)c(C)c1)C1C=CS(=O)(=O)C1 (centres undefined)
 : -1% | >57
> Cc1ccc(S(=O)(=O)N[C@@H]2COC(=O)C/C=C\[C@H](C)COC(=O)N[C@@H](C)C(=O)C/C=C\[C@H]2C)cc1
 : 10%[1.6 µM] | /
> CC(=O)N(CC1CCCO1)C1(C(=O)NC2CCCC2)CCCCC1 (centres undefined)
 : -7% | >57
> CCOC(=O)CSc1nc2cc(C(=O)NCC3CCCO3)ccc2c(=O)n1Cc1ccco1 (centres undefined)
 : 2% | >57

(further entries)
Compound	LT uptake inh	SmPrx2 inh
CCC(=O)N1CCN(c2ccc(NC(=O)c3cc4ccccc4o3)cc2Cl)CC1	10µM*	>57
COc1ccc(N2CCN(CCNC(=O)CCS(=O)(=O)c3cccc4nsnc34)CC2)cc1	3%	>57
Cc1cc(C)c2cc(CN(CCO)C(=O)Nc3ccc(Cl)cc3)c(=O)[nH]c2c1	-14%	>57
O=S(=O)(Cc1ccccc1)N1CCCC1	-2%	/
CCOC(=O)CSc1nnc(CNC(=O)c2cc(OC)c(OC)c(OC)c2)n1C	6%	>57
COC(=O)c1cc(-c2c(C)oc3cc(O)ccc3c2=O)c(C)o1	12%	>57
O=C(NCC(c1cccnc1)N1CCN(c2ccc(F)cc2)CC1)c1ccc(F)cc1 (centres undefined)	6%	>57
O=C(COc1ccccc1)Nc1ccc(S(=O)(=O)NCc2ccco2)cc1	-8%	>57
CCn1c(SCC(=O)Nc2cc(NC(C)=O)ccc2OC)nnc1-c1ccccn1	1%	>57
COc1ccccc1OCc1ccc(C(=O)Nc2ccncc2)o1	8%	>57
N#C/C(=C1/CCCCCN1)c1nnc2n1CCCCC2	10%	>57
O=C(O)c1cccc(C(=O)O)c1S(=O)Cc1ccccc1 (centres undefined)	-8%[8 µM]	>57
CNCC[C@H](Oc1ccccc1OC)c1ccccc1	-5%	>57&>57&>57
COc1cc(Cl)c(C)cc1NC(=O)CSC	4%	>57
CCC(C)[C@H](NC(=O)Nc1cccc(OC)c1)C(=O)OC (some centres undefined)	?	>57
CCOC(=O)c1ccccc1NC(=O)Cn1cnc2c(cnn2-c2ccc(OC)cc2)c1=O	-6%	>57
CC(C)C12CN3CC(C(C)C)(CN(C1)C3c1ccc3c(c1)OCO3)C2=O (centres undefined)	-9%	>57
O=c1n(-c2ccccc2)c(=O)n2n1CC[C@H]1/C(=N\OCc3ccccc3)[C@H]3O[C@@H]3[C@@H](O)[C@@H]12	-10%[8 µM]	/
CN(C)c1ccc(-c2cc(NCc3cccnc3)ncn2)cc1	2%	>57
O=C(Nc1ccccc1N1CCN(c2ccccc2)CC1)c1cccc(F)c1	?	>57
CS(=O)(=O)N1CCN(CC2CC3C=CC2C3)CC1 (centres undefined)	4%	>57
CCC(=O)N1CCN(C(=O)CC)C1c1ccccc1	7%	>57
Cc1cc(C)n2cc(CSC3=NCCS3)nc2n1	6%	>57
Cc1ccc(Nc2nc(N)nc(CN3CCN(c4ccccc4F)CC3)n2)cc1	-16%	>57
C=CCc1ccccc1OCC(O)CN(C(C)C)C(C)C (centres undefined)	-24%	>57
O=c1/c(=C/c2ccco2)sc2nc(-c3ccccc3Br)nn12	-8%	>57
CCn1cc(C(=O)N2CCN(C(=O)c3ccco3)CC2)c2cc(OC)c(OC)cc2c1=O	0%	>57
Cn1c(=O)c2c(ncn2CC(O)CNc2ccc(Br)cc2)n(C)c1=O (centres undefined)	0%	>57
Cc1ccc(S(=O)(=O)NCC(=O)N(CC(=O)NCc2ccccc2)CC2CCCO2)cc1 (centres undefined)	?	>57
CCc1ccccc1N(CC)C(=O)c1cn(CC)c(=O)c2cc(OC)c(OC)cc12	6%	>57
O=C(NCc1ccc2c(c1)OCO2)c1cccs1	6%	>57
O=C1C=C(Nc2nc(C(=O)O)cc(=O)[nH]2)c2ccccc2C1=O	-13%[8 µM]	>57
Cc1cccc(C(=O)NC2CCN(CC(=O)N3CCOCC3)CC2)c1	-3%	>57
CC(=O)NC(CCS(C)(=O)=O)C(=O)Nc1cccc2ccccc12 (centres undefined)	-2%	>57
CC(C)Nc1nc(NC(C)C)nc(Oc2ccc(/C=N/O)cc2)n1	-1%	>57
CN1CCC2(CC1)NC(=O)C1=C(CN(C)CC1)N2	4%	>57
NC(=O)c1cc(-c2ccccc2)nc(N2CCCCCC2)n1	?	>57
O=C(CCCc1cccs1)Nc1nc2c(s1)CCCC2	-6%	>57
CCOc1ccc(CCNC(=O)C2CCCN(S(=O)(=O)c3c(C)n[nH]c3C)C2)cc1OCC (centres undefined)	?	>57
COc1ccc(C2C(C(=O)Nc3ccccc3)=C(C)Nc3nc(CCCO)nn32)cc1 (centres undefined)	2%	>57
Cc1ccc(-c2nnc3c4ccccc4c(C)nn23)cc1NC(=O)c1ccco1	-4%	>57
COc1cccc2cc(C(=O)Nc3cccc(C)n3)c(=O)oc12	4%	>57
CCOCCn1c(N2CCN(c3ccccc3)CC2)nc2c1c(=O)n(C)c(=O)n2C	-8%	>57
O=C(c1ncc[nH]1)c1ccco1	/	>57
CC(C)CNS(=O)(=O)c1ccc(CCC(=O)O)cc1	0%	>57
Cc1ccc(-n2c(CSc3nc(C)cc(C)n3)nnc2SCC(=O)NCc2ccco2)cc1	-3%	>57
CN1CCN(C(=O)c2ccccc2NC(=O)c2cccs2)CC1	-5%	>57
S=c1nc(-c2ccccc2)n(CCN2CCOCC2)c2c1CCCC2	-9%	>57
CC(=O)OC(C(=O)NC1CCCCC1)c1ccc(C)cc1 (centres undefined)	-9%	>57
O=C(c1cc(-c2ccc3c(c2)OCO3)on1)N1CCOCC1	11%	>57

Going on with the list.
Compound	LT uptake inh	SmPrx2 inh
OCc1cc([C@@H](O)CNCCCCCCOCCCCc2ccccc2)ccc1O	?	>57&>57
Cc1cc(C(=O)OCC(=O)NCCc2ccccc2)c(C)o1	-3%	>57
CCOC(=O)c1c(-c2cccs2)csc1NC(=O)CSc1ncn[nH]1	0%	>57
COc1ccc(C)cc1S(=O)(=O)N(CC(=O)N1CCCC1)c1ccccc1	-5%	>57
O=C(NC1CSC/C1=N\O)c1ccccc1 (centres undefined)	-5%	>57

Another view of some results above:
Cc1cc(C(=O)OCC(=O)NCCc2ccccc2)c(C)o1
- LT uptake inh = -3%
- SmPrx2 inh = >57
CCOC(=O)c1c(-c2cccs2)csc1NC(=O)CSc1ncn[nH]1
- LT uptake inh = 0%
- SmPrx2 inh = >57
COc1ccc(C)cc1S(=O)(=O)N(CC(=O)N1CCCC1)c1ccccc1
- LT uptake inh = -5%
- SmPrx2 inh = >57
O=C(NC1CSC/C1=N\O)c1ccccc1 (centres undefined)
- LT uptake inh = -5%
- SmPrx2 inh = >57
